MARV entry inh – inhibitors of Marburg virus binding or cell entry. actives 1.8% (n = 300,000). Marburg virus pseudotyped entry inhibition, cell reporter; control for the full effect not named in the record; about a third of the inactives were read at about 46 µM. Potency, µM (doses to about 37.8 µM), inactives show at the top dose activity change, negative = inhibition, usual class: inhibitors; active = well fitted inhibition curve with a large enough effect; inconclusive = small, poorly fitted or top-dose-only effect, or effect the other way; inactive = flat fitted curve, though single readings scatter; tested in HEK293 cells; about a fifth of its hits are not listed in these tables; further: on the % scale 0 is the no-effect control and ±100 the full control effect; luciferase read-out
RE007 growth inh – less growth of the S. pombe RE007 Vpr strain | AID 651644 | Potency, µM (top dose mostly 92.2 µM), inactives show top-dose activity change, negative = less growth | S. pombe RE007 Vpr strain, BacTiter-Glo ATP luminescence, 24 h; control for the full effect not named in the record | actives 0.21% (n = 360,000); active = well fitted falling curve with a large enough effect; inconclusive = small, poorly fitted or top-dose-only effect; inactive = no such curve, though single readings can be large or run the other way;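 further: on the % scale 0 is the no-effect control and ±100 the full control effect; nearly all actives have a fitted effect of over 50% in size; the assay follows cell death caused by Vpr and the record does not say whether a fall means rescue or toxicity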
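Fission yeast strain RE007, carrying one chromosomally integrated HIV-1 vpr copy, was seeded at OD 0.01 in PMG+AL medium with 23 nL pinned compound. After 24 h at 30 °C and 99% humidity, viability was read by BacTiter-Glo luminescence.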
2A StopGo – FMDV 2A StopGo reporter, luciferase signal; human cells with a luciferase reporter of 2A StopGo recoding; control for the full effect not named in the record; Potency, µM (highest dose often 57.9 µM), without a hit: at the top dose signal change, negative = less light; actives 1.2% (n = 410,000); active = well fitted falling curve with a large enough effect; inconclusive = small, poorly fitted or top-dose-only effect; inactive = no such curve, though single readings can be large or run the other way; tested in HEK293T cells; further: on the % scale 0 is the no-effect control and ±100 the full control effect; nearly all actives have a fitted effect of over 45% in size; luciferase light after 4 h
Cruzain inh Det – cruzain (T. cruzi) inhibition with detergent. purified cruzain, Z-FR-AMC fluorescence, 0.01% Triton. Potency, µM, inactives show max response, negative = inhibition, hits mostly inhibitors. actives 0.43% (n = 200,000);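 further: plate controls were neutral wells for no effect and buffer without enzyme for full effect; nearly all actives have a fitted effect of over 40% in size; top concentration of the series not given in the record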
Target sequence (P25779 123-467 limits assumed): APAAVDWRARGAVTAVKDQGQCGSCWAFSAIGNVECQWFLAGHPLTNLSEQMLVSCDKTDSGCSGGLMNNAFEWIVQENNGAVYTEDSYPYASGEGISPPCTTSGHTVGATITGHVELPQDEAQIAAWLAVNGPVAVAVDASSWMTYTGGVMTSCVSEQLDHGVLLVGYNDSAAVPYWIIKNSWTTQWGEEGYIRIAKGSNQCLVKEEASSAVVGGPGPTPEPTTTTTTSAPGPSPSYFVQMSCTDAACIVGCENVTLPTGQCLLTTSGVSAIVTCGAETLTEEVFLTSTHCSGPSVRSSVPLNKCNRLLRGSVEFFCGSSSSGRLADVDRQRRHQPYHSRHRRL
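Compounds were screened in titration against cruzain (1.5 nM) with 0.01% Triton X-100 to counter colloidal aggregation. Activity was the AMC fluorescence increase over 60 s after adding 2 uM Z-FR-AMC at pH 5.5.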
Cruzain inh noDet – cruzain (T. cruzi) inhibition without detergent; purified cruzain, Z-FR-AMC fluorescence, no detergent; Potency, µM, for the others: max response, negative = inhibition, hits mostly inhibitors; actives 2.3% (n = 200,000);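 further: plate controls were enzyme without inhibitor for no effect and buffer without enzyme for full effect; nearly all actives have a fitted effect of over 40% in size; top concentration of the series not given in the record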
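Purified cruzain at 1.5 nM, pre-incubated 15 min with compound at room temperature in 100 mM sodium acetate pH 5.5, 5 mM DTT, 0.00005% Triton X-100. Reaction started with 2 uM Z-FR-AMC; AMC fluorescence increase over 60 s gives rate.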
NS1 function inh – blocks influenza NS1 protein function; S. cerevisiae slowed by influenza A NS1, growth recovery by OD600; Potency, µM (highest dose often 46.1 µM), for inactives: top-dose activity, positive = more growth; actives 0.4% (n = 270,000); AID 2326; active means well fitted rising curve with a large enough effect; inconclusive means small, poorly fitted or top-dose-only effect; inactive means no such curve, though single readings can be large or run the other way; further: nearly all actives have a fitted effect of over 50% in size
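S. cerevisiae expressing influenza A NS1, grown in glucose, washed, then diluted 1:100 into pH 6.0 -URA galactose medium with 23 nl compound. Growth recovery read as OD600; NS1-free strain serves as control.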
SARS PLpro yeast – inhibitors of SARS-CoV papain-like protease in yeast. S. cerevisiae expressing SARS-CoV PLpro, growth rescue; control for the full effect not named in the record. Potency, µM (series often up to 32.9 µM), without a hit: at the highest dose activity, positive = growth rescue. AID 485353. actives 0.19% (n = 330,000); active means well fitted rising curve with a large enough effect; inconclusive means small, poorly fitted or top-dose-only effect; inactive means no such curve, though single readings can be large or run the other way; further: 0% is about no effect; nearly all actives have a fitted effect of over 55% in size; growth read by luminescence after 48 h
Lassa entry inh – Lassa virus entry inhibition | Lassa virus pseudotype entry inhibition, cell reporter; control for the full effect not named in the record | Potency, µM (doses to about 37.9 µM), inactives show top-dose activity change, negative = inhibition, usual class: inhibitors | actives 1.2% (n = 300,000); active means well fitted inhibition curve with a large enough effect; inconclusive means small, poorly fitted or top-dose-only effect, or effect the other way; inactive means flat fitted curve, though single readings scatter; tested in HEK293 cells; further: on the % scale 0 is the no-effect control and ±100 the full control effect; nearly all actives have a fitted effect of over 50% in size; luciferase read-out
Numbers without * were called inactive; ? = inconclusive; . = not tested or not shown; & = joins results of further samples; [ ] = another dose, or the depositor's remark. Unless noted, the call rests on the fitted dose curve; in most records, active means well fitted curve in the direction sought with a large enough effect; inconclusive means small, poorly fitted or top-dose-only effect, or another doubt; inactive means no such curve, though single readings can be large; an effect the other way counts as inactive or inconclusive. Potency means the concentration at half of the fitted maximal effect.

mol	SARS PLpro yeast	MARV entry inh	NS1 function inh	2A StopGo	Lassa entry inh	Cruzain inh Det	RE007 growth inh	Cruzain inh noDet
CCOc1ccc(CCNC(=O)CN2C(=O)C(CC)Oc3ccccc32)cc1OCC (stereo not drawn)	.	.	.	-15%	-16%[46.1 µM]	0.4%	.	1%
COc1ccc(S(=O)(=O)N[C@H](C(=O)N2CC[C@@]3(O)CCCC[C@H]3C2)c2ccccc2)cc1	-2%	-20%[46.1 µM]	-25%	5%	-7%	3.1%	-3%	1%
Cc1ccccc1CSc1nc2nc(C)c(Cc3ccccc3)c(C)n2n1	.	.	.	12%	?	-0.3%	.	0%
Cn1c(SCC(=O)NC2CC2)nnc1-c1ccccc1	-6%	-8%[46.1 µM]	11%	12%	21%[46.1 µM]	.	-14%	.
O=C(c1ccccc1)c1nc2ccccc2n(CCCn2c(=O)c(C(=O)c3ccccc3)nc3ccccc32)c1=O	-5%	1%	28%	8%	-1%	-0.6%	-8%	10µM*
CC(C)C[C@H](NC(=O)c1cc2cc(Cl)ccc2n1C)C(=O)N1CCC[C@H]1C(=O)O	-3%	.	?	-16%	.	.	9%	.
COc1ccc(S(=O)(=O)N(CC(=O)Nc2ccc(S(=O)(=O)N3CCOCC3)cc2)c2ccccc2)cc1	19%	.	-1%	-24%	?	1.2%	16%	16%
Cc1cc(C)c(S(=O)(=O)c2ccccc2)c(OC(=O)c2cc(F)c(F)cc2Cl)n1	-4%	?	-15%	-9%	-22%	-3.8%	23%	-3%
Fc1ccc(NCc2nnc(SCc3nnc(-c4ccccc4)o3)n2Cc2ccccc2)cc1	-8%	-11%&-11%	-61%	?	0%	0.3%	-8%	27%
Cc1ccc(C2(CC(=O)O)CCOC(C)(C)C2)cc1 (stereo not drawn)	4%	2%	-3%	-12%	8%	-0.2%	-13%	11%
CCOc1cc(C(=O)Nc2ccc(S(=O)(=O)Nc3cc(OC)nc(OC)n3)cc2)cc(OCC)c1OCC	.	.	.	-1%	-27%[46.1 µM]	-14%	.	?
CN(C)c1nc(C(F)(F)F)cc(=O)[nH]1	0%	16%[46.1 µM]	7%	-4%	-1%[46.1 µM]	.	12%	.
CCOC(=O)C1=C(C)NC(=S)NC1C (stereo not drawn)	2%	?	7%	56%[activator]	-2%[46.1 µM]	.	16%	.
COCc1[nH]nc2c1C(c1cccc(OC)c1)C(C#N)=C(N)O2 (stereo not drawn)	10%	-3%	6%	-25%	-2%	0.8%	12%	-7%
CC(=O)Nc1ccc(S(=O)(=O)Nc2ccc(NC(=O)c3ccco3)cc2)cc1	0%	6%	-3%	.	2%	-0.3%	0%	-5%
CC(CC(=O)NCc1ccccc1)C1CCCO1 (stereo not drawn)	6%	12%	-3%	47%[activator]	-7%	2.5%	-11%	-8%
CCOC(=O)C1=C(N)OC2=C(C(=O)CCC2)C1c1ccccc1OCC (stereo not drawn)	12%	1%	-1%	-14%	16%	-1.5%	3%[3.69 µM]	-2%
Cn1ncc(Cl)c1C(=O)N/N=C/c1cccc(OC2CSC2)c1	1%	5%	8%	-14%	6%	-6.7%	18%	-4%
Cc1ccc(NC(=O)CN2C(=O)C3CC=C(Cl)CC3C2=O)cc1 (stereo not drawn)	-1%	2%[46.1 µM]	1%	15%	6%[46.1 µM]	.	2%	.
COc1cc(OC)nc(Oc2cccc(C(F)(F)F)c2)n1	-1%	?	7%	-7%	8%	.	7%	.
Cc1cc(C)nc(-n2nc(C)c3c2NC(=O)CC3c2cc(F)ccc2F)n1 (stereo not drawn)	.	3%[46.1 µM]	.	-25%	8%[46.1 µM]	0.7%	.	9%
COc1ccccc1NC(=O)COc1ccc(-c2nn(C)c(=O)c3ccccc23)cc1	2%	-3%&-3%[46.1 µM]	-2%	18µM*	-7%[46.1 µM]	-5.4%	34%	18%
Nc1nc(-c2ccc3c(c2)OCCO3)c(CC(=O)O)s1	29%	6%	14%	-1%	9%	.	-16%	.
O=C(c1ccc(F)cc1)N1CCC(C(=O)N2CCN(c3ncccn3)CC2)CC1	16%	10%	.	-10%	-11%	.	12%	.
COc1ccccc1N1CCN(C2CC(=O)N(c3ccc(F)cc3)C2=O)CC1 (stereo not drawn)	-23%	.	?	-14%	.	.	-20%	.
CCS(=O)(=O)c1ncc(N(Cc2ccccc2)Cc2ccco2)c(C(=O)Nc2ccc(C)c(C)c2)n1	.	?	.	-7%	?	-3.4%	.	?
CC(C)CCNC(=O)CN1C(=O)c2cccnc2Oc2ccccc21	.	8%[46.1 µM]	.	-12%	?	-2.9%	.	7%
CN1CCN(c2ccccc2NC(=O)c2ccc(-c3ccc(Br)cc3)o2)CC1	-4%	?	4%	-3%	-2%[46.1 µM]	.	-10%	.
O=C1C(C=Nc2ccccc2)=C(O)c2ccccc21	-6%	?	-50%	-61%	?	-0.9%	-23%	-7%
CCC1(c2ccccc2)NC(=O)N(CC(=O)Nc2ccc3c(c2)OCO3)C1=O (stereo not drawn)	-3%	8%	6%	-24%	-7%	-1.5%	4%	-2%
CCOC(=O)C1=C(CN2CCN(c3ccc(Cl)cc3)CC2)NC(=O)NC1c1ccc(OC)cc1 (stereo not drawn)	.	.	.	?	-29%[46.1 µM]	0.1%	.	-3%
CCc1ccc(-n2c(=O)c3cccnc3n2CC(=O)Nc2ccccc2C(F)(F)F)cc1	.	.	.	-5%	-8%[46.1 µM]	-9.2%	.	?
C/C(CCc1ccccc1)=N\NC(=O)c1ccccc1	-4%	1%	-8%	5%	-3%	-2.2%	1%	-7%
CCN1CCN(C(=O)c2cc(S(=O)(=O)Nc3ccc(S(C)(=O)=O)cc3)ccc2Cl)CC1	-2%	10%[46.1 µM]	-4%	12%	.	.	8%	.
Cc1ncc(CN2CCN(C(C)C)C(CCO)C2)s1 (stereo not drawn)	0%	14%[46.1 µM]	-1%	-3%	9%[46.1 µM]	.	-2%	.
COCCN1Cc2cccc(C(=O)Nc3cc(OC)ccc3OC)c2C1=O	0%	?	-9%	-16%	-19%	1.0%	-13%	6%
CC(C)C(=O)OCC(=O)Nc1ccc2c(c1)CCC2	5%	-11%[46.1 µM]	-2%	11%	-5%	4.5%	14%	-8%
Cc1cccc(OCC(=O)Nc2cccc(O)c2)c1	1%	26%	-10%	64%[activator]	?	2.4%	-6%	-14%
CCn1cc(C=C2C(=O)c3ccccc3C2=O)c2ccccc21	4%	0%[46.1 µM]	-7%	11%	10%	-6.4%	5%	-4%
CC(=O)N1CCN(Cc2ccc(Cl)nc2)CC1	3%	11%[46.1 µM]	2%	-8%	-2%[46.1 µM]	.	-13%	.
CCOc1ccc(NC(=O)C(=O)NCCc2ccccc2)cc1	.	.	.	-1%	-8%[46.1 µM]	1.1%	.	2%
FC(F)(F)c1cccc(-n2cccc2/C=N/n2cnnc2)c1	2%	12%	4%	-21%	-16%	-4.7%	-3%	-7%
NNC(=O)c1cccc(Cn2cc(Br)c([N+](=O)[O-])n2)c1	2%	.	7%	-12%	.	.	-4%	.
COC(=O)C(Nc1ccccc1Cl)(c1cc(C)c(O)c(C)c1)C(F)(F)F (stereo not drawn)	-26%	?	-71%	-8%	?	-7.9%	?	-11%
C=CCOc1ccc(C2NC(=S)NC3=C2CCc2ccccc23)cc1 (stereo not drawn)	0%	?	0%	-16%	-28%[46.1 µM]	.	-4%	.
Oc1ccccc1C1=Nc2ccccc2N=C(c2cccs2)C1	-19%	?	-48%	-19%	-7%	-6.3%	-22%	?
CCOc1nc(Nc2ccc(OC)cc2)nc(N2CCOCC2)n1	-1%	.	-1%	-14%	.	.	4%	.
CC(=O)Nc1nonc1-c1nc2ccccc2n1Cc1ccccc1Br	.	7%[46.1 µM]	.	?	-1%[46.1 µM]	-2.0%	.	8%
Cc1ccc(CC(=O)N(C)CC(=O)Nc2ccc(N3CCOCC3)cc2)cc1C	-2%	12%	.	?	-6%	.	-9%	.
CCOc1ncccc1C(=O)OCC(=O)Nc1ccc(C(C)C)cc1	-4%	-6%[46.1 µM]	.	-2%	-26%[46.1 µM]	.	-1%	.

(next part)
mol	SARS PLpro yeast	MARV entry inh	NS1 function inh	2A StopGo	Lassa entry inh	Cruzain inh Det	RE007 growth inh	Cruzain inh noDet
Cc1ccc(C(=O)N/C(=C\c2ccco2)C(=O)NCCCn2ccnc2)cc1C	-5%	-12%	?	.	5%	5.2%	-16%	4%
CN(C)c1ccc(CNC(=O)c2cccn2-c2nnc(N3CCCCC3)s2)cc1	.	.	.	-8%	-1%[46.1 µM]	-3.1%	.	-21%
Cc1onc(C(=O)N2CCC(Cc3ccccc3)CC2)c1[N+](=O)[O-]	5%	.	-15%	-14%	.	.	-1%	.
CCC(Sc1nc2ncccc2[nH]1)C(=O)NCCc1ccccc1 (stereo not drawn)	4%	.	4%	-10%	.	.	5%	.
O=[N+]([O-])c1ccc(N2CCCCC2)nc1N1CCCCC1	-1%	-28%[46.1 µM]	-10%	-20%	?	.	-9%	.
CC(C)CC(c1nnnn1C1CCCCC1)N1CCN(c2ncccn2)CC1 (stereo not drawn)	15%	-30%	-52%	20%	?	-1.9%	25%	?
Cc1cc(C)c(NC(=O)CCCN2CCCC2)c(C)c1	-1%	2%[46.1 µM]	-10%	-3%	-1%[46.1 µM]	.	10%	.
Cc1ccc(S(=O)(=O)N(C)c2ccc(OC(=O)c3cccs3)cc2)cc1	1%	13%	.	-16%	-2%	.	31%	.
O=C(CNCc1ccccc1)Nc1cccc(Cl)c1Cl	1%	9%[46.1 µM]	-1%	-6%	?	.	-4%	.
O=C(Cn1c(C(F)(F)F)nc2ccccc21)NCCN1CCCC1	-4%	-16%	-4%	-17%	-3%	2.0%	-10%	-3%
O=S(=O)(c1cccc2nsnc12)N1CCN(C/C=C\c2ccccc2)CC1	-16%	-1%&-13%	2%	.	5%	-3.9%	4%	-8%
Cc1cc(NC(=O)CSc2nc3c([nH]c4ccccc43)c(=O)n2-c2cccc(C(F)(F)F)c2)no1	17%	?	4%	?	?	-6.2%	1%	?
